Bioassay records deposited in PubChem BioAssay by Broad Institute.
Tg IFNy HTS – inhibitors of Toxoplasma gondii growth with IFN-gamma | activity change, negative = inhibition, %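 (about 20 µM by stock and volumes)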 | AID 1259416 | Toxoplasma gondii growth in IFN-gamma-treated host cells; active compounds read low; reference of the scale not given here | 69,000 compounds, 3.8% hits;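 active = below -70%; inconclusive = fit judged invalid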;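 note: host cells are HeLa cells infected with Toxoplasma gondii; parasite growth read as luciferase light; one replicate is shown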
The depositor's hits bear a star; u = inconclusive; & = joins results of further samples. An excerpt; count on the stated rates, not on these rows.

SMILES	Tg IFNy HTS
Cn1cc(C[C@H]2[C@H](O)CCN2C(=O)c2ccc[nH]2)cn1	-2
COc1ccc(Cc2n[nH]c(=O)n2-c2ccc(C(=O)O)cc2)cc1	-40
O=C(c1c(F)cccc1Cl)N1CCN(S(=O)(=O)c2cc3c4c(c2)CCC(=O)N4CCC3)CC1	9
Cc1onc(-c2ccccc2)c1CNC(=O)c1ccccc1	29
N#C[C@@H]1[C@H](c2ccccc2-c2ccccc2F)[C@@H](CO)N1C(=O)c1ccccn1	-1
COc1cccc(CNC2=NCCNC23CCN(S(=O)(=O)c2ccc(C(C)C)cc2)CC3)c1	0
COc1ccc(C)cc1NC(=O)c1c(O)c2ccccc2n(-c2ccccc2)c1=O	177
COc1ccccc1/C=C/CN1CCN(C)C(C(=O)O)C1 (stereo not drawn)	5
O=C(c1cn(CC2CCCNC2)nn1)N1CCc2[nH]ncc2C1 (stereo not drawn)	0
Cc1ccc(NC(=O)C(=O)NCCc2csc(-c3ccc(C(F)(F)F)cc3)n2)cc1	94
CN1CCC2(CC1)CN(C(=O)C1C(=O)NCC1c1ccccc1)CCN2C (stereo not drawn)	1
CCOc1ccc(-c2cc3c(=O)n(Cc4nc(-c5ccc(C)cc5)oc4C)ccn3n2)cc1Cl	22
C[C@@H]1CN([C@H](C)CO)C(=O)CCCn2nncc2CO[C@H]1CN(C)S(=O)(=O)c1ccc2c(c1)OCCCO2	127
O=C(Oc1cccc(C(F)(F)F)c1)c1ccc(-c2cccs2)s1	57
O=S(=O)(NC[C@@H]1[C@@H](c2ccccc2)[C@@H](CO)N1CC1CC1)c1ccccc1	0
CCOC(=O)[C@@]12CCCN(C(=O)c3cccnc3)C[C@@H]1CN(C(C)C)C2	4
CCc1csc(CNC(=O)c2ccc(N3[C@H]4CCNC[C@@H]3CC4)nc2)n1	-2
CCSc1nc(CC(=O)NC(C)c2ncn[nH]2)cs1 (stereo not drawn)	-60
C=C(C)CN(CC)C(=O)CCc1c(C)nn(C)c1C	4
C[C@@H]1CN([C@@H](C)CO)C(=O)c2cc(NC(=O)CCCN(C)C)ccc2O[C@H]1CN(C)Cc1ccc(Cl)c(Cl)c1	-45
CSc1cccc(NC(=O)N2CCc3nc(-c4ccc(C)cc4)sc3C2)c1	281
COC(=O)C(C)N1CCOc2c(O)cc(-c3cccc(Cl)c3)cc2C1 (stereo not drawn)	-7
N#C/C(=C/c1ccccc1)C(=O)NCc1ccccc1	7
Cc1noc([C@]23CCO[C@H]2CCN(S(=O)(=O)N(C)C)C3)n1	1
O=C(CNC(=O)OCc1ccccc1)Oc1cc2oc(=O)cc(-c3ccccc3)c2cc1Cl	10
CCOc1ccc2oc(=O)cc(CN3CCN(Cc4nc(-c5cc(C)ccc5C)oc4C)CC3)c2c1	-38
CCCN(CCC)CCCNC(=O)C1=C(C)C(=O)OC12CCN(C(C)=O)CC2	66
CCOCCCn1c(SCc2ccccc2)nc2ccccc2c1=O	12
CCOC(=O)c1nc(N2CCN(Cc3ccc4c(c3)OCO4)CC2)c2ccccc2n1	42
O=C(c1ccc(F)cc1)N1c2ccccc2Sc2ccc(C(F)(F)F)cc21	-76*
CCn1c(C)cc2cc(NC(=O)CCn3nc(C)c(C)c3C)ccc21	78
C[C@H]1CN([C@@H](C)CO)C(=O)c2cc(C3=CCCC3)cnc2O[C@H]1CN(C)C(=O)Nc1ccc(C(F)(F)F)cc1	0
COc1ccccc1-c1cn(CC[C@@H]2CC[C@@H](NC(=O)C3CCCCC3)[C@H](CO)O2)nn1	-26
COc1ccc(CCC(=O)N2CCC[C@@H]2C(=O)NCCc2csc(-c3ccccc3)n2)cc1	17
CC(C)Cc1cc(C(=O)N2CCn3cncc3C2)nc(=O)[nH]1	99
O=C(c1ccc(Cl)cc1)n1nnc2ccccc21	-17
Fc1ccc2nc(CN3CCSCC3)cn2c1	-5
c1ccc(C2CCCN(Cc3cc4n(n3)CCNC4)CC2)cc1 (stereo not drawn)	-8
Cc1cc(NC(=O)C(=O)N(C)Cc2cnn(-c3ccccc3C)c2)no1	-16
CCOC(=O)c1nc(NCCCN2CCN(Cc3ccccc3)CC2)c2ccccc2n1	2

16 neighbouring records out of the list so far, for reference:
SMILES	Tg IFNy HTS
CSc1cccc(NC(=O)N2CCc3nc(-c4ccc(C)cc4)sc3C2)c1	281
COC(=O)C(C)N1CCOc2c(O)cc(-c3cccc(Cl)c3)cc2C1 (stereo not drawn)	-7
N#C/C(=C/c1ccccc1)C(=O)NCc1ccccc1	7
Cc1noc([C@]23CCO[C@H]2CCN(S(=O)(=O)N(C)C)C3)n1	1
O=C(CNC(=O)OCc1ccccc1)Oc1cc2oc(=O)cc(-c3ccccc3)c2cc1Cl	10
CCOc1ccc2oc(=O)cc(CN3CCN(Cc4nc(-c5cc(C)ccc5C)oc4C)CC3)c2c1	-38
CCCN(CCC)CCCNC(=O)C1=C(C)C(=O)OC12CCN(C(C)=O)CC2	66
CCOCCCn1c(SCc2ccccc2)nc2ccccc2c1=O	12
CCOC(=O)c1nc(N2CCN(Cc3ccc4c(c3)OCO4)CC2)c2ccccc2n1	42
O=C(c1ccc(F)cc1)N1c2ccccc2Sc2ccc(C(F)(F)F)cc21	-76*
CCn1c(C)cc2cc(NC(=O)CCn3nc(C)c(C)c3C)ccc21	78
C[C@H]1CN([C@@H](C)CO)C(=O)c2cc(C3=CCCC3)cnc2O[C@H]1CN(C)C(=O)Nc1ccc(C(F)(F)F)cc1	0
COc1ccccc1-c1cn(CC[C@@H]2CC[C@@H](NC(=O)C3CCCCC3)[C@H](CO)O2)nn1	-26
COc1ccc(CCC(=O)N2CCC[C@@H]2C(=O)NCCc2csc(-c3ccccc3)n2)cc1	17
CC(C)Cc1cc(C(=O)N2CCn3cncc3C2)nc(=O)[nH]1	99
O=C(c1ccc(Cl)cc1)n1nnc2ccccc21	-17

Part of the list above in order of length of the SMILES, ascending.
SMILES	Tg IFNy HTS
CCSc1nc(CC(=O)NC(C)c2ncn[nH]2)cs1 (stereo not drawn)	-60
COc1ccc(Cc2n[nH]c(=O)n2-c2ccc(C(=O)O)cc2)cc1	-40
C[C@@H]1CN([C@H](C)CO)C(=O)CCCn2nncc2CO[C@H]1CN(C)S(=O)(=O)c1ccc2c(c1)OCCCO2	127

Other records
SMILES	Tg IFNy HTS
COc1ccccc1N1CCN(C(C)=O)C(Cc2ccccc2Br)C1=O (stereo not drawn)	4
O=C(c1cc2cccnc2n(Cc2ccccc2F)c1=O)N(CCc1ccccc1)Cc1ccccc1	-37
CCOC(=O)c1ccc(-c2ccc(C3CC(=O)Nc4cc5c(cc43)OCCO5)o2)cc1 (stereo not drawn)	u
O=C(C[C@@H]1CC[C@@H](NC(=O)CN2CCOCC2)[C@H](CO)O1)NC1CCC1	-19
NC(N)=NCCC[C@H](N)C(=O)NCC(=O)N[C@@H](CC(=O)O)C(=O)N[C@@H](CO)C(=O)O	31
Cn1c(CNC(=O)C2CCC2)nc2c1CN(C(=O)c1ccc(OC(F)(F)F)cc1)CC2	-49
Cc1cc(-c2snnc2C2CCCN(Cc3ccc(F)cc3)C2)on1 (stereo not drawn)	18
CC(C)NC(=O)N1CC(=O)N2[C@H](C1)[C@H](c1ccc(/C=C/c3ccccc3)cc1)[C@@H]2CO	-42
COc1ccc(CCC(=O)N2CCC3(CC2)Nc2ccccc2-n2cccc23)cc1	-115*
COc1cccc(-c2ccc3c(c2)O[C@H](CN(C)Cc2cccnc2)[C@@H](C)CN([C@@H](C)CO)S3(=O)=O)c1	-64
CC[C@@H](N)Cn1c(=O)oc2ccccc21	13
CN1CCCc2sc(C(=O)NCC3CCCO3)nc21 (stereo not drawn)	-37
CC(Nc1ccc(-c2nccn2C)nn1)c1ccccc1 (stereo not drawn)	205
C[C@@H]1CN([C@@H](C)CO)C(=O)c2cc(C3=CCCC3)cnc2O[C@H]1CN(C)C(=O)Nc1ccc(C(F)(F)F)cc1	-69
CCCn1cnc(NC(=O)NCCC2CCCCCC2)n1	-20
Cn1cnc(S(=O)(=O)N2CCC(C3CCCCN(Cc4ccccc4)C3=O)CC2)c1 (stereo not drawn)	9
Cc1ccc(S(=O)(=O)N2C[C@H](O)COC[C@H]3O[C@@H](CC(=O)N4CCc5ccccc5C4)CC[C@@H]32)cc1	-4
COc1ccc(C2CCCN2C(=O)CCC(=O)N2CC(=O)Nc3ccccc32)cc1 (stereo not drawn)	2
CCCc1nc(C)cc(N(C)Cc2ccnc(C)c2)n1	-1
CCS(=O)(=O)N1CC[C@@H]2[C@@H]1CCC(=O)N2c1ccccc1	7
COc1cccc(-c2nc(Cn3c(=O)c4cccnc4n(-c4ccccc4)c3=O)c(C)o2)c1OC	4
C=C(C)COc1ccccc1C(=O)NC1C=CS(=O)(=O)C1 (stereo not drawn)	63
O=C(c1ccco1)N1CCc2c([nH]c3ccccc23)C1c1cccnc1 (stereo not drawn)	-44
COC1CC2CC1CN2c1ncccn1 (stereo not drawn)	95
Cc1ccc(-n2c(SCC(=O)Nc3nc(C)cs3)nnc2-c2ccoc2C)cc1	-16
C=CCOc1ccc(Cl)cc1CN1CCOC(CN)C1 (stereo not drawn)	-6
Cc1nnsc1CN(C)Cc1cc(F)ccc1-n1cccn1	1
Cn1c2ccccc2c2c1cc(C(=O)N1CCCCC1)n2-c1ncccn1	6
Brc1ccc(NCn2cnc3ccccc32)cc1	14
O=C1c2ccccc2C(=O)N1CC1COc2ccccc2O1 (stereo not drawn)	70
Cc1ccc(CN2CCC3(CC2)N=C(c2cccc(Cl)c2)C(=O)N3)c(C)c1	4
COc1ccc(C)cc1NC(=O)CN1C(=O)CCc2cc(S(=O)(=O)N3CCCC3)ccc21	111
CN1CCCCN2[C@@H](CO)[C@@H](c3ccc(-c4ccc(F)cc4)cc3)[C@@H]2C1	-13
CCn1c(C2CCN(C(=O)CCn3c(C)cccc3=O)CC2)nn(C)c1=O	6
C[C@H]1CN([C@@H](C)CO)C(=O)c2cc(-c3ccc(F)cc3)cnc2O[C@@H]1CN(C)S(C)(=O)=O	299
CCOCCCNC(=O)c1cc(-c2cnc(N3CCOCC3)nc2)cn1C	-2
CCS(=O)(=O)N1CCC2OCCCC2(COCc2ccncc2)C1 (stereo not drawn)	5
CN1[C@H](C(=O)Nc2nccs2)[C@@H](CO)[C@@H]2Cn3c(ccc(-c4ccccc4F)c3=O)[C@@H]21	3
Cc1cccc(-c2ncc(-c3nccn3CCCc3nn[nH]n3)cn2)c1	2
Cc1ccc(C)c2c(=O)c(C(=O)O)c[nH]c12	-9
COc1ccc(-c2cc(C(=O)N3CCCC3c3ccc(OC)c(OC)c3)n(C)n2)cc1 (stereo not drawn)	-16
CN(C)c1ccc(-c2nc(-c3ccccc3)nc(-c3ccccc3)n2)cc1	35
Fc1ccccc1CSc1nc(Nc2ccc3c(c2)OCO3)c2ccccc2n1	-45
O=C(CC1CCCCCC1)N1CCC(n2cc(-c3cccnc3)nn2)CC1	-7
CN1C(=O)c2cc(NC(=O)c3cccc(F)c3)ccc2OC[C@H]2O[C@@H](CC(=O)NCc3ccccc3Cl)CC[C@H]21	-46
O=c1c2ccccc2nnn1Cc1cccc(F)c1	-49
CC(C)NC(=O)N1CCC(c2nnc3ccc(C(=O)CCN4CCOCC4)cn23)C1 (stereo not drawn)	-9
Cc1oc(-c2ccccc2)nc1-c1c(-c2ccccc2)ncn1CCO	-8
CN(Cc1ncc[nH]1)C(=O)C1=NNC(=O)CC1	-5
Cc1ccccc1-c1ccc([C@H]2[C@@H](CO)N3CCCCN(S(=O)(=O)Cc4ccccc4)C[C@H]23)cc1	-53
CC(C)C(C)N(Cc1ccco1)C(=O)CCn1cccc1 (stereo not drawn)	-30
O=C(CC1Nc2c3ccccc3nc(=S)n2C1=O)NCCc1ccccc1 (stereo not drawn)	12
Cc1cc(C)n(CCCC(=O)N2CC3(CCNCC3)CC2C(=O)O)n1 (stereo not drawn)	-8
O=C(C[C@@H]1CC[C@H]2[C@@H](COC[C@@H](O)CN2C(=O)c2ccccc2F)O1)NCc1ccc(Cl)c(Cl)c1	-48
O=C(C1COCCO1)N1CCc2onc(-c3cccc4ccccc34)c2C1 (stereo not drawn)	8
CC(C)(C)N=C1Nc2ncccc2NC12CCCN(C(=O)c1cc(-c3cccs3)[nH]n1)C2 (stereo not drawn)	-16
O=C(NCc1nccn1Cc1ccccc1)c1ccc(-n2cnnn2)cc1	-6
CC(=O)CC1N(C2CCCCCC2)C(=O)C2N(C3CCCCC3)C(=O)C3CC(=O)OC312 (stereo not drawn)	13
O=C1c2cccc3cccc(c23)C(=O)N1Cc1ccco1	-27
CC(C)CNC(=O)CC1CC2(CCN(CC3CCOCC3)CC2)Oc2ccccc21 (stereo not drawn)	45

Next compounds:
SMILES	Tg IFNy HTS
CCc1nc([C@H]2CN(C)C[C@@H]2C(=O)NCCCn2ccnc2)c(C)[nH]1	8
COc1cccn(Cc2nnc(SCC(=O)c3ccccc3)o2)c1=O	24
COCC1CC2(CCN(Cc3nccs3)CC2)CO1 (stereo not drawn)	3
COCCN1CCC2O[C@@H](C(=O)NCc3cnc(C)cn3)CC21 (stereo partly drawn)	3
CCN1C[C@@H]2CCN(C(=O)NC3CCCC3)CC[C@H]2S1(=O)=O	1
Cc1cccc(-c2nnc(-c3nc(NCCCN4CCCC4=O)c4ccccc4n3)o2)c1	441
CC(=O)c1ccc(-c2ccc(N)c(C(=O)c3ccccc3)c2)cc1	-85*
CC(=O)N1CCC2(CC1)OC(=O)C(C)=C2C(=O)NCCN1CCOCC1	47
CCOC1C2CCC1N(C(=O)c1ccc(C)nc1)C2 (stereo not drawn)	80
CCc1cn[nH]c1C1CCN(C(=O)c2cc(C)n3nc(C)cc3n2)CC1	2
CO[C@H]1CN(C)C(=O)c2cc(NC(=O)c3ccccc3F)ccc2OC[C@@H](C)N(CC2CCOCC2)C[C@H]1C	14
CO[C@H]1CN(C)C(=O)c2ccc(NS(=O)(=O)c3ccc(C)cc3)cc2OC[C@@H](C)N(C)C[C@H]1C	50
CC(C)n1nccc1NC(=O)CN1CCc2nc(-c3ccc(C(F)(F)F)cc3)sc2C1	194
NS(=O)(=O)c1cc2c(cc1Cl)NC(CSCc1ccccc1)=NS2(=O)=O	7&-5
